# Source: PubChem BioAssay (National Center for Advancing Translational Sciences (NCATS))
# Resorufin fluor = compound fluoresces in the resorufin spectral region | Compound fluorescence, resorufin region 547/598 nm, buffer; active compounds read high | max dye-equivalent concentration, M | 59,000 tested, 0.04% active | AID 588; active = above 10 nM dye equivalent; inconclusive = 1 to 10 nM; inactive = 1 nM or less; a few of its hits are not listed in these tables; also: highest value over a series up to 38 µM
#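 Compounds in 100 mM Tris buffer, pH 8.0, incubated 15 min at room temperature, then read with 547 nm excitation and 598 nm emission filters. Fluorescence was converted to dye-equivalent concentration using an on-plate six-point resorufin standard curve.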
# AID923 = qHTS Assay for Allosteric/Competitive Inhibitors of Caspase-1: Spectroscopic Profiling in AFC Spectral Region; compound fluorescence, AFC spectral region (405/520 nm); almost no hit is shown here; Potency, µM (series often up to 57.5 µM), inactives show at the highest dose fluorescence increase, most hits filed as activators; 75,000 tested, 1.1% active; active = well fitted activation curve with a large enough effect; inconclusive = small, poorly fitted or top-dose-only effect;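 also: potency is read from the fitted curve at half-maximal effect; 0% is about no effect; scaled to a free AFC standard on each plate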
#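 Compound autofluorescence profiled at 405 nm ex/520 nm em during kinetic caspase 1 run (50 nM enzyme, 5 uM Ac-WEHD-AFC, HEPES pH 7.5, 10 mM DTT). Titration up to 57 uM; baseline from regression intercept, normalized to AFC standard curve.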
# A647 fluor = compound fluoresces in the A647 spectral region; Compound fluorescence, A647 channel (570/671 nm), Tris buffer; max dye-equivalent concentration, M; 59,000 tested, under 10 active; active means above 1 µM dye equivalent; inconclusive means 0.1 to 1 µM; inactive means 0.1 µM or less;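 also: values scaled relative to a standard on each plate; highest value over a series up to 38 µM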
#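 Each compound's intrinsic fluorescence at 570 nm excitation and 671 nm emission is measured across its concentration series in 100 mM Tris, pH 8.0, after 15 min at room temperature, and reported relative to an A647 curve.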
# A488 autofl = A488 region autofluorescence | compound autofluorescence, A488 spectral region, dye equivalency; active compounds read high | max dye equivalency, M | 59,000 tested, 0.1% active | AID 591; active = above 10 nM dye equivalent; inconclusive = 1 to 10 nM; inactive = 1 nM or less; about half of its hits are not listed in these tables;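 also: highest value over a series up to 38 µM; compound alone in buffer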
#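 Read-out: relative fluorescence at 480/540 nm, expressed as Alexa 488 dye-equivalent concentration from a six-point A488 standard included per plate. Conditions: 100 mM Tris, pH 8.0; 15 min incubation, room temperature.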
# TSHR ag = agonists of human thyroid stimulating hormone receptor | HEK293-CNG-TSHR cells (CNG channel as cAMP sensor), membrane potential dye, cAMP | 73,000 tested, 0.48% active | Potency, µM (highest dose often 57.1 µM), for the others: at the highest dose activation, usual class: activators; active = well fitted activation curve of enough size with the parental cells flat; inconclusive = any curve in the parental cells; inactive = parental cells flat and receptor cells flat or falling; also: potency is read from the fitted curve at half-maximal effect; % of control where 0% means no effect; weak receptor curves with flat parental cells got no call and are not listed
# Target sequence (P16473 whole entry, looked up): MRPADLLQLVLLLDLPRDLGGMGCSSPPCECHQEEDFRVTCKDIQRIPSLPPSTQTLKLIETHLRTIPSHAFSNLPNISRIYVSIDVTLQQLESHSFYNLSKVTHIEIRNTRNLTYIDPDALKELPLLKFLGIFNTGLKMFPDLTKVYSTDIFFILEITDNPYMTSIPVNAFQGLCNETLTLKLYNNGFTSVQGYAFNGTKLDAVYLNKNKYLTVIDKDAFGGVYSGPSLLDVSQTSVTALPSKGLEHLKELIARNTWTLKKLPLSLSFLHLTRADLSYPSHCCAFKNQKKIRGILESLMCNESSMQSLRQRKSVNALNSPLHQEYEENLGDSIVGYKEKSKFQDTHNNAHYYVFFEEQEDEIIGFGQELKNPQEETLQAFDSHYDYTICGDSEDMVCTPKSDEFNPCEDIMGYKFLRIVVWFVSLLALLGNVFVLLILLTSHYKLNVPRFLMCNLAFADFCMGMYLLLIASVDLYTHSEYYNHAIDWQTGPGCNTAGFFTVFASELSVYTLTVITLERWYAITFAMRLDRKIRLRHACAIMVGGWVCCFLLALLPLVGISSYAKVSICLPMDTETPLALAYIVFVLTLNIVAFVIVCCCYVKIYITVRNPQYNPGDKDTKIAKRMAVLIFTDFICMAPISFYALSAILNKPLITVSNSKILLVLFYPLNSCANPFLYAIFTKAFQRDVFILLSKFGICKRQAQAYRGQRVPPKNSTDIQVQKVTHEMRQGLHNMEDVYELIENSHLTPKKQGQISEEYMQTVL
#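 HEK 293 cells stably expressing TSHR and a modified CNG channel, with CNG-only parental cells as counterscreen, were preloaded 60 min at room temperature with membrane potential dye containing 100 uM RO 20-1724. Compound exposure was 30 min, and depolarization was read as fluorescence at 590 nm.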
# Numbers without * were called inactive; i = inactive; ? = inconclusive; · = no result given; & = joins results of further samples; [ ] = another dose, or the depositor's remark.
no.	mol	A488 autofl	TSHR ag	Resorufin fluor	AID923	A647 fluor
1	Cc1ccc2nc(CSc3nnc(-c4ccco4)o3)cc(=O)n2c1	i	4.4%	i	-0.1%	3.14e-08
2	CNC(=O)[C@@]1(C)C=C[C@@H](Cc2ccccc2)N1C(=O)OC	·	11.8%	·	-6.1%	·
3	COc1ccc(N2CCN(CCCNC(=O)CCCn3c(=O)[nH]c4ccsc4c3=O)CC2)cc1	i	1.1%	i	2.3%	4.32e-08
4	Cc1cc(C(=O)CN2C(=O)NC(Cc3c[nH]c4ccccc34)C2=O)c(C)n1C (centres undefined)	i	0.4%	i	-0.3%	2.03e-08
5	N#CN=C(N)c1ccccc1	i	-2.0%	i	0.6%	1e-09
6	CC1CCN(C(=O)CSc2nnc(-c3ccco3)o2)CC1	·	-0.2%	·	3.3%	·
7	Cc1cc(C)c(C#N)c(SCC(=O)N2CCN(Cc3ccccc3)CC2)n1	i	·	i	·	7.91e-08
8	CCOc1ccc(N2C(=O)CCC2=O)cc1	i	3.9%	i	-0.4%	2.94e-08
9	COC(=O)c1ccccc1NC(=O)CN(C1CCCCC1)S(C)(=O)=O	i	-1.0%	i	1.0%	1e-09
10	COC(=O)CNC(=O)CNC(=O)Nc1ccccc1	i	-2.9%	i	-1.9%	1.99e-08
11	CN1CCN(C(=O)c2ccc(NS(=O)(=O)c3ccccc3)cc2)CC1	i	-5.2%	i	·	3.5e-09
12	CCOCCCn1c(SCC(=O)NC(C)C)nc2ccccc2c1=O	i	1.4%	i	0.0%	9.1e-09
13	c1ccc2c(c1)oc1c(N3CCN(Cc4ccc5c(c4)OCO5)CC3)ncnc12	i	?	i	4.2%	1e-09
14	CCN(CC)S(=O)(=O)c1cccc(-c2nnc(SCCCC(=O)c3ccccc3)o2)c1	i	?	i	2.1%	1e-09
15	CCOC(=O)C1C(=O)OC(C)(C)C1C(C)C(=O)c1ccc(OC)cc1 (centres undefined)	i	7.0%	i	0.1%	1.17e-08
16	COc1ccccc1-n1c(SCC(=O)Nc2ccc3c(c2)OCO3)nc2c(c1=O)SCC2	i	10.5%	i	1.3%	1.32e-08
17	O=C(Nc1ncnc2c1ncn2C1OC(COC(=O)c2ccccc2)C(F)C1O)c1ccccc1 (centres undefined)	i	3.9%	i	-0.7%	1.2e-09
18	Cc1cc(NC(=O)COc2ccc3oc4ccccc4c3c2)no1	i	4.3%	i	-1.0%	8.3e-09
19	O=c1cc(N2CCC3(CC2)OCCO3)[nH]c(=O)n1-c1ccc(Cl)cc1	i	-3.2%	i	1.1%	1e-09
20	Cc1ccc(/C(C#N)=C\c2cn(C)c3ccccc23)cc1	i	16.3%	i	4.2%	6.4e-09
21	CC(=O)OC[C@@H]1O[C@@H](O/N=C2/C[C@@H](O)[C@@H](O)[C@@H]3[C@@H]4C(=O)N(c5cccc(Oc6ccccc6)c5)C(=O)[C@H]4CC[C@H]23)[C@H](OC(C)=O)[C@H](OC(C)=O)[C@@H]1OC(C)=O	·	7.0%[11.4 µM]	·	3.4%[11.5 µM]	·
22	COc1ccc(CNC(=O)c2nnn(Cc3ccc(OC)cc3)c2N)cc1	·	-2.6%	·	-0.8%	·
23	O=c1nc2s/c(=C\c3ccco3)c(=O)n2nc1Cc1ccccc1	·	4.0%	·	13.0%	·
24	COc1ccc(OC2C(O)COC2/C=C/c2ccccc2)cc1 (centres undefined)	·	2.4%&-1.6%[11.4 µM]	·	0.6%&-1.9%[11.5 µM]	·
25	CCOC(=O)Nc1ccc(C(=O)NCC2CCCO2)cc1 (centres undefined)	i	-2.4%	i	0.3%	2.66e-08
26	COc1ccc(-c2cc(C(=O)NCCN3CCOCC3)c3ccccc3n2)cc1	i	-5.1%	i	0.0%	1e-09
27	CSc1ccccc1NS(=O)(=O)c1ccccc1	i	13.5%	i	0.8%	4.1e-09
28	CN(Cc1ccccc1)C(=O)CN(C1CCCCC1)S(C)(=O)=O	i	15.5%	i	-0.1%	6.8e-09
29	Cc1nn(C)c(C)c1S(=O)(=O)N1CCCC(C(=O)NCCc2ccc(Cl)cc2)C1 (centres undefined)	·	0.2%	·	0.3%	·
30	COc1ccc(C)cc1NC(=O)COCC(=O)O	i	?	i	-1.2%	3.67e-08

# The list goes on:
no.	mol	A488 autofl	TSHR ag	Resorufin fluor	AID923	A647 fluor
31	CC1CC2(C)Oc3ccccc3C3OCC1(CO)C(C)C32 (centres undefined)	i	8.6%	i	0.4%	1e-09
32	CC(=O)Nc1ccc(NS(=O)(=O)Cc2ccccc2)cc1	·	-2.7%	·	1.1%	·
33	COc1ccc(C2(NC(C)=O)CCN(C(=O)c3ccco3)CC2)cc1	i	6.3%	i	0.6%	5e-08
34	Cc1ccccc1-n1c(=O)c2ccccc2n2c(=O)[nH]nc12	i	-4.9%	i	-1.8%	1.06e-08
35	CC1(C)CC(=O)C2=C(C1)OC(N)=C(C#N)C2c1cccc(OC(=O)c2ccco2)c1 (centres undefined)	i	1.5%	i	-0.3%	1e-09
36	CCN(CC)S(=O)(=O)c1cccc(-c2nnc(SCCOc3ccccc3)o2)c1	i	?	i	-1.3%	2.13e-08
37	O=C1OCC(c2ccccc2)=C1c1ccc(S(=O)(=O)N2CCOCC2)s1	i	-5.0%	i	3.1%	3.89e-08
38	N#Cc1nc(-c2ccco2)oc1NCCCN1CCOCC1	i	4.9%	i	1.5%	2.4e-09
39	CS(=O)(=O)N1CCc2cc(-c3csc(NCC4CCCO4)n3)ccc21 (centres undefined)	i	-4.7%	i	0.5%	2.4e-09
40	Cc1ccc(NC(=O)NC2CCCCC2)cc1Cl	i	·	i	-2.9%	1e-09
41	COCCN1C(=O)c2oc3cc(C)c(C)cc3c(=O)c2C1c1ccc(O)cc1 (centres undefined)	i	·	i	-2.9%	1e-09
42	COC(=O)c1ccc(NCC(=O)c2ccccc2)cc1	i	10.7%	i	1.0%	1.7e-09
43	CCCCCCN(C(=O)CCCCCN1C(=O)NC(c2ccc(Cl)cc2)C(C(=O)OCc2ccccc2)=C1C)C(C(=O)NCCCC)c1ccc(OCC(=O)OC)c(C(=O)OC)c1 (centres undefined)	·	7.4%	·	0.3%	·
44	CC(=O)NC1(c2cccc(F)c2)CCN(C(=O)Nc2ccc(C#N)cc2)CC1	i	-2.1%	i	-0.1%	2.69e-08
45	COCC(=O)N1CCC2(CCCN(Cc3nccs3)C2)CC1	i	4.1%	i	-0.9%	2.35e-08
46	Nc1nc(N)nc(CC(=O)O)n1	i	-3.8%[11.4 µM]	i	-2.7%[11.5 µM]	1.15e-08
47	Cc1cc(NC(=O)CSc2nnc(C3CC3)n2N)no1	i	13.7%[11.4 µM]	i	0.0%	1.06e-08
48	Cc1ccccc1CSc1ncc(C#N)c(N)n1	i	7.6%	i	10.2%	1e-09
49	CC(COc1cccc2ccccc12)CN1CCN(C)CC1 (centres undefined)	i	·	i	-1.3%	4.7e-08
50	O=C(CSc1ncn[nH]1)Nc1ccc(Cl)c(Cl)c1	i	-21.2%	i	1.0%	2.66e-08
51	Cc1cc(Oc2ccccc2)nc(-c2ccccc2)n1	·	-3.1%[11.4 µM]	·	4.9%	·
52	Cc1c(NC(=O)c2cnn3c(C(F)(F)F)cc(-c4ccco4)nc23)c(=O)n(-c2ccccc2)n1C	·	11.1%	·	-1.0%	·
53	COc1cccc(NS(=O)(=O)c2ccc(OC)c(OC)c2)c1	i	15.0%	i	-1.1%	3.8e-09
54	CN1C(=O)SC(Nc2ccccc2C(=O)O)C1=O (centres undefined)	i	2.0%	i	-0.3%	1e-09
55	Cc1ccccc1OC1C=CC(C#Cc2ccc(Br)cc2)OC1CO (centres undefined)	·	-0.7%[11.4 µM]	·	0.5%[11.5 µM]	·
56	CCCCCOC(=O)C1=C(C)N(C)C(=O)NC1c1cc(Br)c(O)c(OC)c1 (centres undefined)	i	?	i	-0.2%	1.83e-08
57	Cc1cc(-n2c(C)cc(C(=O)CSc3nnc4sc5ccccc5n34)c2C)no1	i	4.7%	i	1.5%	1e-09
58	CCSc1nc(=S)n(CC)c(C)c1C(C)=O	i	19.7%	i	-0.9%	1.36e-08
59	Cc1cc(C(F)(F)F)nc(SCC(=O)Nc2cc(C)on2)n1	·	13.4%	·	0.6%	·
60	CCOC(=O)c1sc(NC(=O)CCn2nnc3ccccc32)c(C(=O)OCC)c1C	i	17.8%[11.4 µM]	i	-0.6%	2.79e-08

# Record cards, as listed above.
# O=C(CSc1ncn[nH]1)Nc1ccc(Cl)c(Cl)c1 in the list: A488 autofl: i; TSHR ag: -21.2%; Resorufin fluor: i; AID923: 1.0%; A647 fluor: 2.66e-08
# CCSc1nc(=S)n(CC)c(C)c1C(C)=O in the list: A488 autofl: i; TSHR ag: 19.7%; Resorufin fluor: i; AID923: -0.9%; A647 fluor: 1.36e-08

# Next part
no.	mol	A488 autofl	TSHR ag	Resorufin fluor	AID923	A647 fluor
61	COc1cccc(N2C(=O)C3CCCN3C2c2ccc(N(C)C)cc2)c1 (centres undefined)	·	0.7%	·	3.6%	·
62	CC1(C)CC(=O)C2=C(C1)OC(N)=C(C#N)C2Cc1ccccc1 (centres undefined)	·	21.5%	·	-0.7%	·
63	CC1CCC(C(C)C)C(OC(=O)COC(=O)c2ccc(=O)[nH]c2)C1 (centres undefined)	i	13.5%	i	-0.4%	3.3e-09
64	N#CC1=C(N)Oc2n[nH]c(-c3ccccc3)c2C1c1cccnc1 (centres undefined)	i	11.8%[11.4 µM]	i	-0.1%	1.73e-08
65	Cc1csc(NC(=O)CSc2nc(C)nc3c2c(=O)n(C)c(=O)n3C)n1	·	-7.4%	·	3.8%	·
66	CC1CCCC(C)N1C(=O)CSc1nnc(C2CCCCC2)o1 (centres undefined)	i	8.3%	i	5.4%	1e-09
67	CC1=C/C(=C\c2ccc3c(c2)OCO3)C(=O)S1	i	?	i	0.3%	3.63e-08
68	O=C1CSC(c2ccccc2F)N1c1cc(Cl)ccc1O (centres undefined)	i	-13.7%	i	-0.3%	6e-09
69	CCOC(=O)N1CCN(C(=O)c2ccc3c(c2)N(CC)CCS3)CC1	·	4.1%	·	3.0%	·
70	C=CCn1c(SCC(=O)Nc2sc(C)c(C)c2C(=O)OCC)nnc1-c1sc(N)nc1C	i	12.0%	i	0.4%	2.68e-08
71	O=C(/C=N/O)NCCCCNC(=O)/C=N/O	·	-0.8%[11.4 µM]	·	-2.4%[11.5 µM]	·
72	COC(=O)c1ccccc1NS(=O)(=O)c1ccc(O)c(C(=O)O)c1	i	15.4%	i	0.9%	1.6e-08
73	N#C/C(C(=O)N1CCOCC1)=C1/SC(Cc2ccccc2)C(=O)N1c1ccccc1 (centres undefined)	i	·	i	·	1e-09
74	CC(C)c1nnc(NC(=O)C2CCCN2S(=O)(=O)c2ccc(Cl)cc2)s1 (centres undefined)	i	-3.8%	i	0.3%	4.43e-08
75	Cc1ccc(C)c(OCc2nnc(NC(=O)c3ccco3)s2)c1	i	·	i	·	2.7e-09
76	COc1cccc(-c2nc(NCc3ccccc3)c3ccccc3n2)c1	i	?	i	8.8%	1e-09
77	COc1cc2[nH]c3c(N4CCC(C(N)=O)CC4)ncnc3c2cc1OC	i	-0.5%	i	0.0%	5.17e-08
78	CC1CCCCN1C(=O)Nc1cccc(Cl)c1 (centres undefined)	i	?	i	2.2%	1e-09
79	CCOc1ccc(C2NC(=O)c3ccccc3O2)cc1 (centres undefined)	i	-6.8%	i	-0.1%	4.2e-09
80	CN(C)c1cccc(OC2C=CC(C#Cc3ccccc3)OC2CO)c1 (centres undefined)	·	-1.1%[11.4 µM]	·	2.6%[11.5 µM]	·
81	O=C(Nn1c(C2CCC2)nc2ccccc2c1=O)C1CCC1	i	12.3%	i	-0.6%	7.9e-09

# A portion of the library (hit frequency here may not be typical).
